Bioassay records as filed in PubChem.
Mtb H37Rv = Mycobacterium tuberculosis H37Rv growth inhibition, putative kinase inhibitor library, confirmatory dose response (AID 2842); M. tuberculosis H37Rv growth inhibition; higher % means a stronger effect; some inactives read as strong as hits; inhibition, % at 10 µg/mL, or IC90 in µg/mL where a hit was titrated; hit rate 5.2% among 24,000;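 active = confirmed in a dose series; about a fifth of its hits are not listed in these tables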;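 note: bacteria incubated one week before Alamar blue readout; 0% = bacteria only wells and 100% = bacteria with high antibiotic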
* marks the source's active call; other numbers are inactive results.

For COc1cccc2c(=O)n(CC(=O)Nc3ccc(Cl)c(Cl)c3)ccc12 the results were Mtb H37Rv -1%.
`Cc1ccc2cc(CCNC(=O)c3cccc(C(F)(F)F)c3)c(=O)[nH]c2c1C` gave Mtb H37Rv -12%.
CCOc1cccc2c(=O)c(C(=O)O)c[nH]c12 was read as Mtb H37Rv -5%.
Screening Cc1csc2ncc(C(=O)Nc3ccc(Cl)cc3)c(=O)n12 returned Mtb H37Rv -6%.
C=CCN1C(=O)c2oc3ccccc3c(=O)c2C1c1ccc(O)c(OC)c1 (stereo not drawn) was read as Mtb H37Rv -3%.
Screening COc1ccc2nc(-c3cccc(NC(=O)Cc4ccc(F)cc4)c3)cn2n1 returned Mtb H37Rv 82%.
`CC1Cc2nc(SCC(=O)Nc3cccc4ccccc34)n(Cc3ccccc3)c(=O)c2S1` (stereo not drawn) gave Mtb H37Rv 3%.
CCCSc1nc(N)c(NC(=O)c2ccco2)c(=O)[nH]1 was read as Mtb H37Rv 0%.
`Cc1ccccc1NC(=O)CSc1ccc2nnc(CCNC(=O)c3ccc(F)cc3)n2n1` gave Mtb H37Rv 5%.
`O=C(Cc1ccc(Cl)s1)Nc1nc2ccc3ccccc3c2s1` gave Mtb H37Rv 2%.
For CC(=O)c1c(-c2ccccc2)c2cc(Cl)ccc2[nH]c1=O the results were Mtb H37Rv 4%.
`Cc1cc(NS(=O)(=O)c2ccc(NC(=O)c3cnc4sccn4c3=O)cc2)nc(C)n1` gave Mtb H37Rv 0%.
For Cc1ccc(C)c(COc2coc(CSc3nncn3C)cc2=O)c1 the results were Mtb H37Rv -1%.
For COc1ccc(C(=O)Nc2nc(-c3ccc(C#N)cc3)cs2)cc1 the results were Mtb H37Rv -2%.
C=CCNC(=O)c1c(O)nc2sccn2c1=O was read as Mtb H37Rv 9%.
Screening O=C(NNc1ncnc2c1cnn2-c1ccc(Cl)c(Cl)c1)C1CCCCC1 returned Mtb H37Rv -2%.
Screening COc1ccc(NC(=O)c2c[nH]c(=O)n(-c3ccc(F)cc3)c2=O)c(OC)c1 returned Mtb H37Rv -4%.
`CC(=O)c1ccc(NC(=O)CSc2nnc(NC(=O)Nc3ccc(F)cc3)s2)cc1` gave Mtb H37Rv -14%.
For Cc1ccc(-c2csc(NC(=O)c3ccc([N+](=O)[O-])cc3)n2)cc1C the results were Mtb H37Rv 6%.
O=C(OCc1ccc2c(c1)OCO2)c1ccc(Cl)c(S(=O)(=O)N2CCOCC2)c1 was read as Mtb H37Rv -3%.
Cc1ccc(NS(=O)(=O)c2cc3c4c(c2)CCN4C(=O)CC3)cc1C was read as Mtb H37Rv 5%.
COC(=O)Cn1c(=NC(=O)c2ccco2)sc2cc(S(N)(=O)=O)ccc21 was read as Mtb H37Rv 19%.
`CC1CCc2c(sc(NC(=O)C3=COCCO3)c2C(N)=O)C1` (stereo not drawn) gave Mtb H37Rv -8%.
COC(=O)c1c(NC(=O)c2ccco2)sc2c1CCN(C(C)=O)C2 was read as Mtb H37Rv 2%.
`CCOc1ccc(C(=O)Nc2nnc(-c3ccc(Cl)cc3Cl)s2)cc1` gave Mtb H37Rv 1%.
`CCOC(=O)c1nn(-c2ccc(Cl)cc2)c(=O)c2c(NC(=O)c3cccc([N+](=O)[O-])c3)scc12` gave Mtb H37Rv 3%.
For N#Cc1c(NC(=O)CC2CCS(=O)(=O)C2)sc2c1CCCC2 (stereo not drawn) the results were Mtb H37Rv 4%.
For CCOC(=O)Nc1c(C(=O)Nc2ccc(OC(F)(F)F)cc2)oc2ccccc12 the results were Mtb H37Rv -3%.
`Cc1ccc(OCC(O)Cn2c(NCCCn3ccnc3)nc3c2c(=O)n(C)c(=O)n3C)cc1C` (stereo not drawn) gave Mtb H37Rv -3%.
`COc1cccc2c1Oc1nc(-c3ccccc3O)[nH]c(=O)c1C2` gave Mtb H37Rv -10%.

Pulled by compound from above, two records:
For CCOC(=O)Nc1c(C(=O)Nc2ccc(OC(F)(F)F)cc2)oc2ccccc12 the results were Mtb H37Rv -3%.
`CCOC(=O)c1nn(-c2ccc(Cl)cc2)c(=O)c2c(NC(=O)c3cccc([N+](=O)[O-])c3)scc12` gave Mtb H37Rv 3%.

Continued.
Cc1ccc(-c2csc(NC(=O)c3cccc(N4C(=O)CCC4=O)c3)n2)o1 was read as Mtb H37Rv -6%.
COc1ccc(NC(=O)c2oc3ccccc3c2NC(=O)Cc2ccccc2)cc1OC was read as Mtb H37Rv -4%.
`Cc1ccc(Cn2c(SCCO)nc3c2c(=O)[nH]c(=O)n3C)cc1` gave Mtb H37Rv 12%.
For O=C(O)c1cc(N2C(=O)/C(=C\c3ccco3)SC2=S)ccc1O the results were Mtb H37Rv -9%.
CCOC(=O)c1nn(-c2ccc(F)cc2)c(=O)c2c(NC(=O)c3cccc(F)c3)scc12 was read as Mtb H37Rv -7%.
`O=c1oc2ccccc2c(O)c1C=Nc1cccc(Cl)c1` gave Mtb H37Rv -4%.
For Cc1ccc2cc(CCNC(=O)C3CC3)c(=O)[nH]c2c1C the results were Mtb H37Rv 2%.
Screening COc1cccc(Cn2cc(C(=O)c3ccc(C)cc3)c(=O)c3cc(OC)ccc32)c1 returned Mtb H37Rv 15%.
Screening CS(=O)(=O)c1ccc(-c2nnc(NC(=O)c3ccc([N+](=O)[O-])cc3)o2)cc1 returned Mtb H37Rv -5%.
CN(C)/C=N/c1c(C#N)cnn1-c1ccc(Cl)nn1 was read as Mtb H37Rv 15%.
For CCn1c(SCC(=O)Nc2ccc(C)cc2)nc2c(c1=O)SC(C)C2 (stereo not drawn) the results were Mtb H37Rv 5%.
Cc1ccc(Cl)cc1N/C=C(\C#N)c1nc(-c2ccc([N+](=O)[O-])cc2)cs1 was read as Mtb H37Rv 4%.
CCOc1ccc2c(c1)c(=O)c(S(=O)(=O)c1ccc(C(C)C)cc1)cn2Cc1ccccc1 was read as Mtb H37Rv 5%.
For CCc1nnc(NC(=O)CSc2ncnc3c2cnn3-c2ccc(Cl)cc2)s1 the results were Mtb H37Rv -3%.
`CCOc1ccc(C(=O)NCCc2cc3cc(C)c(C)cc3[nH]c2=O)cc1` gave Mtb H37Rv -3%.
`N#Cc1c(NC(=O)c2cccc(Oc3ccccc3)c2)sc2c1CCC2` gave Mtb H37Rv 9%.
`Cc1ccc(NC(=O)c2cnc3sccn3c2=O)cc1Cl` gave Mtb H37Rv -8%.
For Cc1ccc(S(=O)(=O)N(C)CCCC(=O)Nc2ccc(F)cc2)cc1 the results were Mtb H37Rv 0%.
For CCOC(=O)c1cccc(N2C(=O)/C(=C\c3ccncc3)SC2=S)c1 the results were Mtb H37Rv -6%.
CCOc1ccc2nc(Nc3nc4cc5c(cc4s3)OCO5)sc2c1 was read as Mtb H37Rv 82%.
For CCOC(=O)c1oc2ccccc2c1NC(=O)C(C)(C)C the results were Mtb H37Rv 29%.
For COc1ccccc1C(=O)Nc1nnc(-c2cc(Cl)ccc2Cl)o1 the results were Mtb H37Rv -18%.
`Cc1cc(O)c(C(=O)Cc2csc(C)n2)c(O)c1` gave Mtb H37Rv -8%.
CC(=O)Nc1ccc(NC(=O)c2ccc(-c3cccc(C(F)(F)F)c3)o2)cc1 was read as Mtb H37Rv -5%.
For O=C(NCc1c(F)cccc1F)C(=O)Nc1cc(F)ccc1F the results were Mtb H37Rv 8%.
`COc1ccc(-n2nnc3c(SCC(=O)Nc4cc(C)on4)ncnc32)cc1` gave Mtb H37Rv 1%.
`Cc1ccc(CNC(=O)CCCc2nnc3c(=O)n(-c4ccc(Cl)cc4)ccn23)cc1` gave Mtb H37Rv -8%.
`Nc1nc(SCc2ccccc2Cl)[nH]c(=O)c1NC(=O)c1ccc(Cl)cc1` gave Mtb H37Rv -6%.
Screening Cc1ccccc1C(=O)Oc1coc(CSc2nnc(NC(=O)c3cccs3)s2)cc1=O returned Mtb H37Rv -15%.
Screening Cn1c(=O)c2c(nc(N3CCCCC3)n2CCSc2ncccn2)n(C)c1=O returned Mtb H37Rv 10%.

Some of these compounds in order of length of the SMILES, high to low.
`Cc1ccc(CNC(=O)CCCc2nnc3c(=O)n(-c4ccc(Cl)cc4)ccn23)cc1` gave Mtb H37Rv -8%.
CC(=O)Nc1ccc(NC(=O)c2ccc(-c3cccc(C(F)(F)F)c3)o2)cc1 was read as Mtb H37Rv -5%.
`Nc1nc(SCc2ccccc2Cl)[nH]c(=O)c1NC(=O)c1ccc(Cl)cc1` gave Mtb H37Rv -6%.
For O=C(NCc1c(F)cccc1F)C(=O)Nc1cc(F)ccc1F the results were Mtb H37Rv 8%.
For CCOC(=O)c1oc2ccccc2c1NC(=O)C(C)(C)C the results were Mtb H37Rv 29%.
`Cc1cc(O)c(C(=O)Cc2csc(C)n2)c(O)c1` gave Mtb H37Rv -8%.

Other compounds
`CCc1ccccc1NC(=O)c1cnc2n(c1=O)CCS2` gave Mtb H37Rv 3%.
For O=C(CSc1nc2c(c(=O)n1-c1ccc(F)cc1)SCC2)Nc1cccc2ccccc12 the results were Mtb H37Rv -1%.
O=C(Nc1nnc(-c2cc(Cl)ccc2Cl)o1)c1cccc(Cl)c1 was read as Mtb H37Rv 32µg/mL*.
For CCOC(=O)c1ccc(NC(=O)/C=C2\SC(=O)N(CC(=O)Nc3ccccc3)C2=O)cc1 the results were Mtb H37Rv -13%.
Screening COc1cc2c(=O)c(C(=O)c3ccc(C)cc3)cn(Cc3ccc(Cl)cc3)c2cc1OC returned Mtb H37Rv 6%.
Screening COc1cc(-c2nnc(NC(=O)CCCS(=O)(=O)c3ccccc3)o2)cc(OC)c1OC returned Mtb H37Rv 7%.
`Cn1c(=O)c2c(nc(N3CCCCCC3)n2CCSc2nnnn2-c2ccccc2)n(C)c1=O` gave Mtb H37Rv 3%.
Cc1cccc(Nc2ncnc(N)c2[N+](=O)[O-])n1 was read as Mtb H37Rv -4%.
`O=C(CSc1nc2ccc(Br)cc2c2nc3ccccc3n12)Nc1nccs1` gave Mtb H37Rv -1%.
Screening Cc1nnc(NC(=O)CSc2ccnc3c2c(=O)n(C)c(=O)n3C)s1 returned Mtb H37Rv 5%.
Screening CC1Cc2nc(SCC(=O)Nc3ccccc3C(F)(F)F)n(C)c(=O)c2S1 (stereo not drawn) returned Mtb H37Rv -2%.
Screening CCCCOc1ccc(C(=O)NCCc2cc3c(C)ccc(C)c3[nH]c2=O)cc1 returned Mtb H37Rv 2%.
CC(=O)CSc1nc2c(c(=O)[nH]c(=O)n2C)n1CCc1ccccc1 was read as Mtb H37Rv -9%.
`CCCSc1nc2c(c(=O)[nH]1)C(c1ccc(N(C)C)cc1)C1=C(CCCC1=O)N2` (stereo not drawn) gave Mtb H37Rv 4%.
`Cc1ccc(S(=O)(=O)Nc2ccccc2C(=O)Nc2cccc3c2C(=O)c2ccccc2C3=O)cc1` gave Mtb H37Rv -4%.
Screening CCc1cc(C(=O)OC)c(NC(=O)CC2SC(N)=NC2=O)s1 (stereo not drawn) returned Mtb H37Rv -1%.
For O=C(NCCc1c[nH]c2ccccc12)C(=O)Nc1cc2c3c(c1)CC(=O)N3CCC2 the results were Mtb H37Rv 6%.
`CCCCC(=O)Nc1ccc2c(c1)C(=O)NC2=O` gave Mtb H37Rv 3%.
`COc1cc(/C=C2/SC(=Nc3ccc(C)cc3C)NC2=O)cc(OC)c1OC` gave Mtb H37Rv 6%.
`CCOC(=O)c1nn(-c2ccc(Cl)cc2)c(=O)c2c(NC(=O)c3ccc(C)c(C)c3)scc12` gave Mtb H37Rv 11%.
For COc1ccc(OC)c2c1sc(=NC(=O)c1cc3c(ccc4ccccc43)oc1=O)n2C the results were Mtb H37Rv -8%.
Screening Cc1ccc(NC(=O)c2ccc(S(=O)(=O)N(C)C)cc2)cc1 returned Mtb H37Rv 2%.
For Cc1cc(C)nc(SCc2cc(=O)c(OC(=O)c3ccc(Br)o3)co2)n1 the results were Mtb H37Rv -3%.
For Cc1ccc(CNc2nc3c(-c4cccc(Br)c4)nnn3c3ccccc23)cc1 the results were Mtb H37Rv -4%.
Screening CCOc1ccc(NCCn2c(C)c(C)n3c4c(=O)[nH]c(=O)n(C)c4nc23)cc1 returned Mtb H37Rv -10%.
CCSc1nnc(NC(=O)c2cccc(Cl)c2)s1 was read as Mtb H37Rv 38%.
For Cc1ccc(-c2nc3ncccn3c2NC(=O)c2cc3ccccc3oc2=O)cc1 the results were Mtb H37Rv 40%.
Screening O=C1NC(=S)NC(=O)C1=Cc1nc(-c2ccc(Cl)cc2)n2ccccc12 returned Mtb H37Rv 1%.
For O=C(Nc1cc2c3c(c1)CCC(=O)N3CCC2)c1ccccc1Cl the results were Mtb H37Rv 8%.
For COc1cccc2sc(Nc3nc4ccc(F)cc4s3)nc12 the results were Mtb H37Rv 75%.
Screening CCS(=O)(=O)c1ccccc1C(=O)Nc1sc2c(c1C#N)CCCC2 returned Mtb H37Rv 2%.
CC(=O)N1CCc2c(sc(NC(=O)c3cc(Cl)ccc3Cl)c2C#N)C1 was read as Mtb H37Rv -4%.
`CCOc1ccc(NC=C(S(=O)(=O)c2ccccc2)S(=O)(=O)c2ccccc2)c([N+](=O)[O-])c1` gave Mtb H37Rv -5%.
Screening NC(=O)c1c(NC(=O)/C=C/c2ccccc2)sc2c1CCCCC2 returned Mtb H37Rv 21%.
Screening CC(=O)NCCc1cc2ccc(C)c(C)c2[nH]c1=O returned Mtb H37Rv -9%.
For CCOC(=O)c1nn(-c2ccc(F)cc2)c(=O)c2c(NC(=O)c3ccccc3OC)scc12 the results were Mtb H37Rv -6%.
`CCc1nnc(NC(=O)CCCN2C(=O)/C(=C\c3ccco3)SC2=S)s1` gave Mtb H37Rv 7%.
Cc1nnc(SCCn2c(N3CCN(C)CC3)nc3c2c(=O)[nH]c(=O)n3C)s1 was read as Mtb H37Rv -1%.
For Cc1ccnc(SCc2cc(=O)c(OC(=O)c3ccc(Br)cc3)co2)n1 the results were Mtb H37Rv 6%.
`Cc1ccc(NC(=O)CSc2ccc3nnc(-c4cccc(F)c4)n3n2)c(C)c1` gave Mtb H37Rv -5%.
For O=C(OCCNC1=C(Cl)C(=O)c2ccccc2C1=O)c1ccccc1 the results were Mtb H37Rv -7%.
For O=C(Nc1ccccc1Cl)c1ccc(Nc2nc(-c3ccccc3)c3cc(Br)ccc3n2)cc1 the results were Mtb H37Rv 15%.
Cc1ccc(NC(=O)C(=O)NCC2COC3(CCCCC3)O2)c(C)c1 (stereo not drawn) was read as Mtb H37Rv 0%.

The list is partial; rates above refer to the full screens.
